TsaE inh: displaces an ADP probe from E. coli YjeE (TsaE). purified YjeE, fluorescence polarisation of a bound ADP probe. Potency, µM. 0.05% of 71,000 active; active = well fitted falling curve; inconclusive = weaker or top-dose-only fall, or a rising curve; inactive = flat or poorly fitted curve;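 note: top concentration of the series not given in the record; excess ADP was the control for the full effect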
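Fluorescence polarization of a BODIPY Texas Red–ADP probe (2 uM) bound to purified YjeE (10 uM) was read after 15 min room-temperature incubation with compounds. Loss of polarization marks inhibitors; ADP serves as titrated control.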
Bst PK mod: pyruvate kinase (B. stearothermophilus) modulation | AID 361 | 1.2% of 51,000 active | Potency, µM | partly purified Bacillus stearothermophilus pyruvate kinase, luminescence ATP production; ribose 5-phosphate activator present at AC10; in the data active means potency below about 11 µM; inconclusive means mostly about 12 µM to 25 µM; inactive means weaker than that;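 the screen sought inhibitors and activators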;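 note: potency is the fitted concentration of half-maximal effect; scaled between full activation by ribose 5 phosphate and full inhibition by luteolin; about four in five hits inhibit and the cells do not say which; series up to 57 µM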
* = called active by the depositor; i = inactive; . = no result given. Only part of the results is shown (hit frequency here may not be typical).

no. | mol | Bst PK mod | TsaE inh
1 | O=C(Nc1c2c(nn1-c1ccc(F)cc1)CS(=O)(=O)C2)C12CC3CC(CC(C3)C1)C2 | >57 | i
2 | CCOc1cc2[nH]c(=S)n(CCCC(=O)NCc3ccco3)c(=O)c2cc1OCC | >57 | i
3 | O=C(c1ccccc1)N1CCN(C2CCCCCC2)CC1 | >57 | i
4 | COc1cc(OC)cc(C(=O)Nc2cc(NC(=O)c3ccco3)ccc2OC)c1 | >57 | i
5 | COC(=O)c1cc(-c2ccccc2)n[nH]1 | >57 | i
6 | CCCN1CCN(CCCNC(=O)CN2C(=O)COc3ccccc32)CC1 | >57 | i
7 | Cc1ccc(CNC(=O)c2ccc(Br)o2)cc1 | . | i
8 | CC(=O)Nc1ccc(S(=O)(=O)N2CCC(n3cnc4cc(F)ccc43)CC2)cc1 | >57 | i
9 | Cn1c(-c2ccc(Br)o2)nc2cc(Br)ccc21 | . | i
10 | COc1ccc(C(C(O)C(=O)c2c[nH]c3ccccc23)N2CCN(c3ccccc3)CC2)cc1 (centres undefined) | >57 | i
11 | Cc1c(C(=O)N2CCCC2)nnn1-c1nonc1N | >57 | i
12 | Cc1ccc(-c2nn3c(-c4ccco4)nnc3c3ccccc23)cc1S(=O)(=O)NCC1CCCO1 (centres undefined) | >57 | i

(more compounds)
no. | mol | Bst PK mod | TsaE inh
13 | CCC(C)[C@H](NC(=O)NC1CCCc2ccccc21)C(=O)O (some centres undefined) | i | i
14 | COc1cccc(OC)c1C(=O)Nc1ccc(CN2CCOCC2)cc1 | >57 | i
15 | COc1cc(C(=O)OCC(=O)c2cc(C)n(C)c2C)cc(OC)c1OC | >57 | i
16 | O=C(CSc1ccc2nnc(-c3ccccc3)n2n1)N1CCN(c2ccccc2)CC1 | . | i
17 | CCOc1ccc2nc(NC3=NCN(Cc4ccco4)CN3)nc(C)c2c1 | >57 | i
18 | Cc1ccc2nc(-c3ccc(SCC(=O)O)nc3)[nH]c2c1 | . | i
19 | CC(C)CCNC(=O)C1C2C=CC3(CN(Cc4ccccc4Cl)C(=O)C13)O2 (centres undefined) | . | i
20 | O=C(NCCOC(=O)c1ccc(Cl)c(S(=O)(=O)N2CCCCC2)c1)c1ccncc1 | >57 | i
21 | C=CCOc1ccc(C2c3c(oc4ccccc4c3=O)C(=O)N2CCCN2CCOCC2)cc1 (centres undefined) | >57 | i
22 | COc1ccc(-c2nc3cnc(OC)nc3n(Cc3cccc(OC)c3)c2=O)cc1 | . | i
23 | COc1ccc(C)cc1NC(=O)CCN1CCCC1 | >57 | i
24 | COc1ccccc1N1CCN(C(=O)CSc2nnc(NC(=O)C3CC3)s2)CC1 | >57 | i

(listing goes on)
no. | mol | Bst PK mod | TsaE inh
25 | Cc1cc(C)cc(OCC(=O)Nc2ccccc2C(=O)NCc2ccco2)c1 | >57 | i
26 | Cc1c(C#N)c2ccccc2n1CC(=O)N1CCCC1 | >57 | i
27 | COc1ccc(NC(=O)c2cc(CC(C)C)on2)cc1OC | . | i
28 | O=C(c1ccco1)N1CCN(c2cccc(Cl)c2)CC1 | . | i
29 | Cn1cccc1Cc1nnc(SCC(=O)NCc2ccccc2)n1-c1ccc(F)cc1 | . | i
30 | CCOc1ccccc1C1C(C(N)=O)=C(C)Nc2nc(CCCO)nn21 (centres undefined) | . | i
31 | O=C(NCC1CCCO1)c1cc(-c2ccncc2)nc2ccc(S(=O)(=O)N3CCOCC3)cc12 (centres undefined) | >57 | i
32 | CCCCC(CCC(=O)O)(C(=O)OCC)c1csc(N)n1 (centres undefined) | . | i
33 | CCOC(=O)CN(C(=O)Cn1nnc(-c2ccc(C)cc2)n1)C(CC)C(=O)NC1CCCC1 (centres undefined) | >57 | i
34 | Cn1c(NCCCN2CCOCC2)nc2c1c(=O)n(Cc1ccc(Cl)c(Cl)c1)c(=O)n2C | i | i
35 | Cc1[nH]c2ccc(-c3nnc(SCC(=O)NCc4ccco4)n3Cc3ccccc3)cc2c1C | >57 | i
36 | CN(C)c1nc(NCc2ccccc2)nc(Oc2ccc(=O)[nH]n2)n1 | >57 | i

The listing continues:
no. | mol | Bst PK mod | TsaE inh
37 | Cc1noc(C)c1COc1ccc(C(=O)OCC(=O)N2CC3(C)CC2CC(C)(C)C3)cc1 (centres undefined) | >57 | i
38 | COCCn1c(=O)c(-c2ccccc2)nc2cnc(Oc3ccc(OC)cc3)nc21 | . | i
39 | CC(=O)CC(=O)NC(=NC1CCCCC1)Nc1nc(C)cc(C)n1 | >57 | i
40 | CCOC(=O)Cc1nnc(NC(=O)CSc2nnc3c4ccccc4n(C)c3n2)s1 | . | i
41 | COc1ccc(OC)c(C2C3CN(C(C)C)CC=C3C(C#N)=C(N)C2(C#N)C#N)c1 (centres undefined) | >57 | i
42 | Cc1ccc(C(=O)NC2CCS(=O)(=O)C2)cc1S(=O)(=O)N1CCOCC1 (centres undefined) | >57 | i
43 | Cc1cccn2c(=O)c3cc(C(=O)NCCCN4CCCC4=O)n(C)c3nc12 | . | i
44 | COC(=O)c1ccc2ncccc2c1 | >57 | i
45 | CCOc1ccccc1C(=O)NCc1ccc2c(c1)OCO2 | >57 | i
46 | O=C(O)CC(C(=O)OCCOc1ccccc1)N1CCOCC1 (centres undefined) | >25.6 | .
47 | CC1CC(C)CN(c2ncc3c(n2)CC(c2ccccc2)CC3=O)C1 (centres undefined) | >57 | i
48 | CCN(CC)CCN1C(=O)C(=O)/C(=C(/O)c2ccc(C)cc2)C1c1ccncc1 (centres undefined) | . | i

(listing goes on)
no. | mol | Bst PK mod | TsaE inh
49 | Cc1noc(C)c1COc1ccc(C(=O)NCc2ccccn2)cc1 | >57 | i
50 | CCN(CC)CC[n+]1ccc2c(C)c3[nH]c4ccc(O)cc4c3c(C)c2c1 | . | i
51 | COc1ccc(N2C(=O)C3C4C=CC(C4)C3C2=O)c(OC)c1 (centres undefined) | >57 | i
52 | CC1(C)OC(=O)C(=CNc2ccccc2)C(=O)O1 | >57 | i
53 | CCn1c(N)c(C(=O)NC)sc1=S | >57 | i
54 | Cc1cc(C)c(C#N)c(SCS(=O)c2ccc(C(C)(C)C)cc2)n1 (centres undefined) | >57 | i
55 | CCCCCOc1ccc(C(=O)NCC(=O)NCC(=O)OCC)cc1 | >25.6 | .
56 | CC(C)Cn1c(=O)c2ccccc2c2ccccc2c1=O | >57 | i
57 | S=c1[nH]nc(Cc2ccccc2)n1-c1ccccc1 | >57 | i
58 | Cc1cc(=O)oc2c(OS(C)(=O)=O)c(OS(C)(=O)=O)ccc12 | . | i
59 | COc1ccc(NC(C)=O)cc1NC(=O)CSc1nnc(-c2ccccn2)n1C | >57 | i
60 | CC(=O)/C=C(\C)Nc1ccc(-c2cnc(-c3ccccc3)o2)cc1 | . | i

(continued)
no. | mol | Bst PK mod | TsaE inh
61 | Cn1c(=O)c(-c2cccs2)nc2cnc(N3CCNCC3)nc21 | . | i
62 | CCOC(=O)CCS(=O)(=O)c1nc(-c2ccccc2)cc(C(F)(F)F)n1 | . | i
63 | Cc1ccc(-c2csc3nnc(SCC(=O)NCc4ccc5c(c4)OCO5)n23)cc1 | >57 | i
64 | CC(C)CCn1nnnc1C(c1ccccc1F)N1CCC(C(N)=O)CC1 (centres undefined) | >57 | i
65 | O=C1COc2ccc(C(=O)NCc3ccc4c(c3)OCO4)cc2N1 | >57 | i
66 | CCn1c(CNC(C)=O)nnc1SCC(=O)c1ccc(Br)cc1 | >57 | i
67 | CC(OCC(O)CN(C)CCOc1ccccc1)c1ccc(Cl)cc1 (centres undefined) | >57 | i
68 | O=C(CCCN1Cc2ccccc2C1)c1ccc(F)cc1 | >57 | i
69 | O=C(Nc1ccc2oc(-c3ccncc3)nc2c1)c1cccs1 | 3.58* | i
70 | CC1=C(C(=O)Nc2ccccc2)C(c2ccccn2)n2nc(CCCO)nc2N1 (centres undefined) | . | i
71 | CCCC(c1nnnn1Cc1ccco1)N1CCC(C(N)=O)CC1 (centres undefined) | >57 | i
72 | C[C@]12CC[C@H]3c4ccc(O)cc4CC[C@@H]3[C@H]1CC[C@@H]2OC(=O)CCC1CCCC1 | . | i

Other entries follow.
no. | mol | Bst PK mod | TsaE inh
73 | Cc1c(C(=O)O)sc2nc3n(c(=O)c12)CCC(C)CC3 (centres undefined) | >57 | i
74 | CCOc1ccccc1N(CC(=O)NCc1ccc(OC)cc1)S(C)(=O)=O | >57 | i
75 | O=C(CN1CCN(CC(=O)Nc2ccc3c(c2)OCO3)CC1)Nc1ccc(F)cc1 | >57 | i
76 | CCOC(=O)c1sc2ncn(CC(=O)NCC3CCCO3)c(=O)c2c1C (centres undefined) | >57 | i
77 | O=C1C2CC=CCC2C(=O)N1c1ccc(Cc2ccncc2)cc1 (centres undefined) | . | i
78 | COc1ccc(/C(O)=C2/C(=O)C(=O)N(c3nc(C)c(C)s3)C2c2ccco2)cc1 (centres undefined) | >11.4 | .
79 | O=c1ccnc(S/C=C/c2ccccc2)[nH]1 | . | i
80 | COC(=O)C1=C(C)NC(C)=C(C(=O)OCCN(C)Cc2ccccc2)[C@@H]1c1cccc([N+](=O)[O-])c1 | . | i
81 | O=C(COc1ccc(S(=O)(=O)NC2CCCCC2)cc1Cl)NCC1CCCO1 (centres undefined) | >57 | i
82 | Cc1cc(/C=N/n2cnnc2)c(C)n1-c1ccc(Cl)cc1Cl | . | i
83 | CCS(=O)(=O)CCn1c([N+](=O)[O-])cnc1C | >11.4 | i
84 | CCc1nc(SCC(=O)NCc2ccco2)c2c3c(sc2n1)CCCC3 | >57 | i

Additional results:
no. | mol | Bst PK mod | TsaE inh
85 | CC(C)CC(c1nnnn1C1CCCC1)N1CCN(C(=O)c2ccco2)CC1 (centres undefined) | >57 | i
86 | COc1ccc(Oc2nc(C)nc3c2oc2ccccc23)cc1 | . | i
87 | C/C(=N\O)C(=O)OC1CC(C)CCC1C(C)C (centres undefined) | . | i
88 | O=C(NC1CCCCC1)NC1(C(=O)N2CCN3CCCC3C2)CCCCC1 (centres undefined) | >57 | i
89 | CCCOC(=O)c1ccc(Oc2c(-c3ccc(O)cc3O)n[nH]c2C)cc1 | >57 | i
90 | CC(=O)C(C(C)=O)c1c(Cl)c(O)c(O)c2c(C(=O)c3ccccc3)coc12 | >57 | i
91 | O=C(CSc1nc2[nH]ncc2c(=O)n1-c1ccccc1)c1ccc2c(c1)OCCO2 | >57 | i
92 | Cc1cccc(OCc2nnc(SCC(=O)OC3CCCCC3)o2)c1 | >57 | i
93 | O=C(NC1CC1)c1ccc(S(=O)(=O)NC2CCCCCC2)cc1 | >57 | i
94 | Cc1nc(N2CCC(C(N)=O)CC2)c2nnn(Cc3ccccc3)c2n1 | >57 | i
95 | O=C(Nc1ccc(Oc2ccc(NC(=O)C3CCCO3)cc2)cc1)C1CCCO1 (centres undefined) | . | i
96 | Cc1c(C(=O)O)oc2ccc(S(=O)(=O)N3CC(C)CC(C)C3)cc12 (centres undefined) | >11.4 | i

Further records
no. | mol | Bst PK mod | TsaE inh
97 | COc1cccc(/C(O)=C2/C(=O)C(=O)N(CCN(C)C)C2c2ccccn2)c1 (centres undefined) | >57 | i
98 | COc1cccc(Nc2ncc3nc(C)c(=O)n(CCC#N)c3n2)c1 | . | i
99 | c1cncc(-c2nn[nH]n2)c1 | >57 | i
100 | CN1CCN(S(=O)(=O)c2cccc(S(=O)(=O)c3ccc(Cl)cc3)c2)CC1 | >57 | i
101 | NS(=O)(=O)c1cc2c(cc1Cl)N[C@@H]([C@@H]1C[C@@H]3C=C[C@H]1C3)NS2(=O)=O | . | i
102 | CC(C)Cc1nc(N2CCN(C(=O)c3ccco3)CC2)c(C#N)c2c1CCC2 | >25.6 | .
103 | COCCn1c(=O)[nH]c2cc(C(=O)NC(C)C)ccc2c1=O | >57 | i
104 | CCCCS(=O)CC(COc1ccc(Cl)cc1)OC(=O)c1ccccc1 (centres undefined) | . | i
105 | COc1ccc(C2C(C#N)=C(SC)NC3=C2C(=O)CC(C)(C)C3)cc1 (centres undefined) | >25.6 | .
106 | COc1ccccc1CNC(=O)CCCN1C(=O)COc2ccc(C)cc21 | >57 | i
107 | Cc1ccc(NC2=CC(=O)CC(C)(C)C2)cc1C | . | i
108 | COc1ccc(C2C(C#N)=C(/N=C/N3CCN(C)CC3)OC3=C2C(=O)CC(C)(C)C3)cc1 (centres undefined) | >57 | i

Going on with the list:
no. | mol | Bst PK mod | TsaE inh
109 | CCOC(=O)c1cnc(-n2nc(C)cc2C)nc1N(C)C | 11.1* | i
110 | CCSc1nnc2c(n1)OC1(CCCC1)Nc1ccccc1-2 | . | i
111 | Cc1noc(C)c1S(=O)(=O)NCCc1ccc(S(N)(=O)=O)cc1 | >57 | i
112 | CCN(C(=O)c1cnc(N2CCN(c3ncccn3)CC2)c2ccccc12)c1cccc(Cl)c1 | >57 | i
113 | O=C1CC(Sc2ncccn2)C(=O)N1c1ccccc1C(F)(F)F (centres undefined) | >57 | i
114 | COc1ccccc1N1CCN(C(c2cc3ccc(C)cc3[nH]c2=O)c2nnnn2C2CCCC2)CC1 (centres undefined) | >57 | i
115 | Cc1ccc(-c2nnc(-c3ccc(Br)cc3)o2)o1 | . | i
116 | CCCCOC(=O)CCn1[nH]c(=O)c2ccccc2c1=O | >57 | i
117 | c1csc(-c2nc(-c3ccncc3)no2)c1 | . | i

One compound at a time (already shown). Order of screens: Bst PK mod, TsaE inh
O=C1CC(Sc2ncccn2)C(=O)N1c1ccccc1C(F)(F)F (centres undefined) is listed as >57, i
COc1ccccc1N1CCN(C(c2cc3ccc(C)cc3[nH]c2=O)c2nnnn2C2CCCC2)CC1 (centres undefined) is listed as >57, i
CCSc1nnc2c(n1)OC1(CCCC1)Nc1ccccc1-2 is listed as ., i
CCN(C(=O)c1cnc(N2CCN(c3ncccn3)CC2)c2ccccc12)c1cccc(Cl)c1 is listed as >57, i
CCOC(=O)c1cnc(-n2nc(C)cc2C)nc1N(C)C is listed as 11.1*, i

High-throughput results: PubChem BioAssay, National Center for Advancing Translational Sciences (NCATS)
